Screening results: PubChem BioAssay, National Center for Advancing Translational Sciences (NCATS)
VDR inhibitor: vitamin D3 receptor (human) inhibition. AID 504847. VDR-SRC2-3 peptide fluorescence polarization, 2 h. Potency, µM, for the others: max response, negative = inhibition, actives largely listed as inhibitors. 0.93% of 400,000 active; active = well fitted inhibition curve with a large enough effect; inconclusive = small, poorly fitted or top-dose-only effect, or another doubt; inactive = no such curve, though single readings can be large or run the other way; also: series mostly up to about 120 µM
Target sequence (P11473 whole entry, looked up): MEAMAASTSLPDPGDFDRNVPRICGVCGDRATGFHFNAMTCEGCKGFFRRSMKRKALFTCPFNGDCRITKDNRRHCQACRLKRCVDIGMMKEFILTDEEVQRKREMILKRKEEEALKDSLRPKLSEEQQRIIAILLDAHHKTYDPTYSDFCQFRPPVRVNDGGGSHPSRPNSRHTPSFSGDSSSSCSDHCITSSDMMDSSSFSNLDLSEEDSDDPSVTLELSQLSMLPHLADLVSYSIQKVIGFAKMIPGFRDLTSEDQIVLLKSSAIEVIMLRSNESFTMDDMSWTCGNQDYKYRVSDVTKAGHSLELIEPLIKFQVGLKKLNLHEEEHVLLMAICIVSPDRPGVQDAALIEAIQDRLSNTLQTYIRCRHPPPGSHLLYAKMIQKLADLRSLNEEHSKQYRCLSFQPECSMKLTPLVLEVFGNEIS
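Two reagent solutions held at 4 deg C in the dark were dispensed, compounds pinned at 23 nl, and the mixture incubated 2 h at room temperature. Read-out: fluorescence polarization of VDR–SRC2-3 peptide binding.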
Numbers without * were called inactive; u = inconclusive; & = joins results of further samples; [ ] = dose if it differs, or a comment. % is scaled to controls: 0 for no effect and ±100 for the full control effect; potency is read from the fitted curve at half-maximal effect.

SMILES | VDR inhibitor
CCOC(=O)C1=CN(CC)S(=O)(=O)NC1CC (configuration not stated) | -9%
COc1ccc(C(=O)Nc2cnccn2)cc1[N+](=O)[O-] | 20%
CS(=O)(=O)N1CCN(c2nnc(-c3ccccc3)c3ccccc23)CC1 | 12%
CC(=O)Nc1ccccc1C(F)(F)F | 15%
CCC(=O)Nc1nnc(S(=O)(=O)N2CCc3ccccc32)s1 | 5%&-9%
COc1ccccc1CC(=O)NCCc1ccc(S(N)(=O)=O)cc1 | 2%
CCOC(=O)c1c(S(=O)(=O)NCC(C)c2ccccc2)c(C)n(C)c1C (configuration not stated) | 34%[activator]
COc1ccc(OC)c(S(=O)(=O)Nc2cccc(F)c2)c1 | 5%
CCNC(=O)NC(=O)C(C)Sc1ccc2c(c1)OCCO2 (configuration not stated) | -15%
CCCS(=O)(=O)N1CCC(C(=O)NCCCN2CCC(Cc3ccccc3)CC2)CC1 | 9%
CC(NC(=O)CCc1nnc(C2CCCCC2)o1)c1ccc(F)cc1 (configuration not stated) | 15%
CCC(=O)Nc1ccc(NC(=O)c2cc3ccccc3o2)cc1 | 9%
CCOC(=O)CC1CCCCN1C(=O)CCCn1nnnc1CN1CCOCC1 (configuration not stated) | 0%
O=C(O)CCN1C(=O)c2ccc(NC(=O)CSCc3ccccc3)cc2C1=O | -5%
O=C(CC(=O)Nc1ccccn1)Nc1ccccn1 | 1%
O=C(CSc1n[nH]c(-c2ccccc2Cl)n1)NCc1ccc(F)cc1 | 20%
COc1ccc(-c2nnc(SCC(=O)Nc3cccc(C(F)(F)F)c3)s2)cc1 | 7%
Brc1ccc(CN2CCN(c3ccccc3)CC2)o1 | 6%
CCCCCc1cc(=O)oc2c(C(CCN3CCN(c4ccccc4)CC3)c3ccc4c(c3)OCO4)c(OC)cc(OC)c12 (configuration not stated) | -20%
O=C(CN1C(=O)CCS(=O)(=O)c2ccccc21)Nc1ccccc1F | -10%
COc1ccc(-c2cnc3nc(/N=C/N(C)C)nn3c2/N=C/N(C)C)cc1 | -26%
Nc1c(C(=O)CSc2nnc(COc3ccc(Cl)cc3)o2)c(=O)[nH]c(=O)n1C1CC1 | -19%
O=C1c2[nH]c(=O)[nH]c(=O)c2CN1Cc1ccccc1 | -14%
O=C1CCN(Cc2ccccc2)C=C1C(=O)c1ccccc1 | u
Cc1ccc(OCC(=O)N2CCCCC2C)c([N+](=O)[O-])n1 (configuration not stated) | 5%
CCOc1ccc2nc(NCCNC(=O)c3cc(OC)c(OC)c(OC)c3)c(C#N)cc2c1 | -17%
COCCNC(=O)CSc1nc2cc(OC)c(OC)cc2c(=O)n1Cc1ccc(OC)cc1 | -10%
CCC(=O)N1CCc2cc(Br)cc(S(=O)(=O)N3CCCC(C(=O)N(C)c4ccc(Br)cc4)C3)c21 (configuration not stated) | 21%
CCCCCCSc1ccc([C@H]2N[C@@](Cc3ccccc3)(C(=O)OC)[C@H]3C(=O)N(C)C(=O)[C@@H]23)cc1OC | 14%
O=c1[nH]c(SCc2ccc(Cl)cc2)nc2ccsc12 | 3%
O=C(CSc1nc(-c2ccc(F)cc2)cc(C(F)(F)F)n1)NCCc1ccccc1 | -21%
Cc1ccc(C(=O)N2CC(=O)Nc3ccc(F)cc3C2c2ccccc2)cc1 (configuration not stated) | -1%
CCC(=O)Oc1cccc(C(=O)Nc2cccc(NC(=O)c3ccco3)c2)c1 | -6%
COc1cc(NC(=O)c2nccnc2N)cc(C(=O)Nc2cccc(C(F)(F)F)c2)c1 | 5%
Cc1cc2cc(CNC(=O)c3cccs3)ccc2n1C | -14%
Cn1nnc2c(NCc3ccccc3)ncnc21 | 0%
Cc1cc2cc(C)c3nnc(SCC(=O)NCc4ccco4)n3c2cc1C | 0%
COc1ccccc1N(CC(O)CN1CCOCC1)S(=O)(=O)c1ccccc1 (configuration not stated) | -7%
CC(=O)Nc1cccc(NC(=O)c2c(-c3ccccc3Cl)noc2C)c1 | 1%
c1ccc2c(c1)nc(CN1CCOCC1)n1c3ccccc3nc21 | 4%
COc1ccc(NC(=O)CN(C)C(=O)C2CC(=O)N(Cc3ccc(C)cc3)C2)cc1 (configuration not stated) | 10%
O=C(OCc1cc(=O)c(OC(=O)c2ccccc2)co1)c1ccccc1 | -1%
CC1CN(C(=O)C2CC(=O)N(c3ccc(Cl)cc3)C2)CC(C)O1 (configuration not stated) | -17%
C/C(=N\Nc1nc2ccc(Cl)cc2o1)c1ccccc1 | 1%
CCOC(=O)c1sc2ccccc2c1S(=O)(=O)NCc1ccccc1OC | -15%
O=C(CN(Cc1ccco1)C(=O)c1ccc(F)cc1F)Nc1ccccc1C(F)(F)F | 16%
COc1cccc(SCC2CSc3nc4ccccc4c(=O)n32)c1 (configuration not stated) | 2%
COc1cccc(-n2c(SCc3ccc(F)cc3)nc3c([nH]c4ccccc43)c2=O)c1 | 11%
CC1(C)Cc2cccc(OCC(=O)N3CCN(c4ccccc4)CC3)c2O1 | -8%
CCOC(=O)CN(C(=O)CSc1nnnn1C)c1ccccc1 | 22%
Next section:
SMILES | VDR inhibitor
COc1ccccc1N1CCN(C(=O)c2cc(S(=O)(=O)N3CCOCC3)ccc2C)CC1 | 12%
CCCc1c(C)c(C#N)c2nc3ccccc3n2c1NCCCN1CCOCC1 | -2%
CC1(C2CC2)NC(=O)N(CC(=O)Nc2ccccc2-c2ccccc2)C1=O (configuration not stated) | -20%
CCOC(=O)c1cnc2ccc(OCC)cc2c1N1CCN(c2ccccc2OC)CC1 | -11%
CC(C)c1ccc(C(=O)NCCCNC(=O)c2cnccn2)cc1 | -13%
COc1ccc(OC)c(NC(=O)CSc2nc3ccccc3c(=O)n2CCNC(C)=O)c1 | 8%
CC(=O)c1cccc(S(=O)(=O)N2CCN(c3ccccc3F)CC2)c1 | 3%&6%
COc1ccc2c([N+](=O)[O-])c(N3CCCC3)[nH]c2c1 | -10%
O=C(Cc1cn2ccsc2n1)Nc1cccc2cnccc12 | 14%
O=C(Nc1cccc2ccccc12)/C(=C/c1cccc([N+](=O)[O-])c1)NC(=O)c1cccs1 | -8%
CN(C)S(=O)(=O)c1cccc(NC(=O)c2ccc(S(=O)(=O)N3CCCC3)cc2)c1 | 6%
CC(=O)c1ccc(NC(=O)CCc2nc3sc4c(c3c(=O)[nH]2)CCCC4)cc1 | -6%
COc1ccc(NC(=O)CN2CCC(C(N)=O)CC2)cc1 | 26%
O=C(COC(=O)c1cccnc1)c1ccc(Cl)c(Cl)c1 | -4%
c1ccc(-n2nnnc2NC2CCCCC2)cc1 | 15%
C=CCC1CCCCC12NC(=O)N(c1ccccc1)N2 (configuration not stated) | 3%
CCCC(NC(=O)c1ccc(Br)o1)c1nc2ccccc2[nH]1 (configuration not stated) | 9%
O=C(CSc1nc(-c2ccc(F)cc2)cc(C(F)(F)F)n1)NCc1ccco1 | -28%
CC(=O)Nc1ccc(S(=O)(=O)N(Cc2cc3ccc(C)cc3[nH]c2=O)CC2CCCO2)cc1 (configuration not stated) | 12%
CN1CCN(C(=O)C23CC4CC(C2)CC(c2ccccc2)(C4)C3)CC1 | -5%
CCOC(=O)c1c(NC(=O)c2ccco2)sc2c1CCCC2 | u
CCN(c1ccccc1)S(=O)(=O)c1ccc(Oc2ccc(-n3ccnc3)cc2)nc1 | -2%
COc1ccc(N(C)S(=O)(=O)c2ccc3c(c2)CCC(=O)N3)cc1 | -2%
CC1=C(C(=O)Nc2ccccc2)C(c2ccc(C)o2)n2ncnc2N1 (configuration not stated) | 7%
O=C(CSC1=NS(=O)(=O)c2cc(Cl)ccc2N1)Nc1cccc(F)c1 | -17%
CSCCC(NC(=O)CCC(=O)OCC(=O)[C@@]1(O)CCC2[C@@H]3CCC4=CC(=O)C=C[C@]4(C)C3[C@@H](O)C[C@@]21C)C(=O)O (some centres not stated) | 20%
CCC(=O)N1c2ccc(S(=O)(=O)NCCc3ccccc3)cc2CC1C (configuration not stated) | 8%&-19%
Cc1ccc(NC(=O)c2oc3ccc(S(=O)(=O)N4CCOCC4)cc3c2C)c(C)c1 | 14%&5%
COc1ccccc1CNc1nc2nc(C)cc(=O)n2[nH]1 | 5%
O=C(Cn1ncc2c3ccccc3n(Cc3cccc(Cl)c3)c2c1=O)N1CCCCC1 | 12%
Cc1ccc(NC(=O)Nc2ccccc2C(=O)NCc2ccccc2)cc1 | -6%
O=C(Nc1cccc(F)c1)c1ccc2c(c1)OCO2 | 2%
CCOc1cc(/C=N\n2nnnc2N)ccc1O | -24%
c1ccc(-c2nnc(CSc3nc4ccccc4[nH]3)o2)cc1 | 3%
CCN1CCN(CCCNC(=O)c2ccc(NC(=O)C3=CSCCO3)cc2)CC1 | -19%
NC(=O)c1oc2ccccc2c1NC(=O)C1COc2ccccc2O1 (configuration not stated) | -24%
CC(=O)NC(CC(=O)NC12CC3CC(CC(C3)C1)C2)c1ccccc1 (configuration not stated) | 19%
CCCCCCC(=O)c1c(C)[nH]c(C(=O)OCC)c1C | 9%
O=[N+]([O-])c1nn(-c2ccc3c(c2)OCCO3)n(O)c1=NCc1ccc(F)cc1Cl | -9%
CC1CCCC(NC(=O)CCC(=O)c2ccc(F)cc2)C1C (configuration not stated) | -18%

Looked up one by one from above:
SMILES | VDR inhibitor
O=C(Nc1cccc(F)c1)c1ccc2c(c1)OCO2 | 2%
CCCCCCC(=O)c1c(C)[nH]c(C(=O)OCC)c1C | 9%
CCN1CCN(CCCNC(=O)c2ccc(NC(=O)C3=CSCCO3)cc2)CC1 | -19%

Ordered by formula weight (high to low): part of the list above
SMILES | VDR inhibitor
CN(C)S(=O)(=O)c1cccc(NC(=O)c2ccc(S(=O)(=O)N3CCCC3)cc2)c1 | 6%
O=C(O)CCN1C(=O)c2ccc(NC(=O)CSCc3ccccc3)cc2C1=O | -5%
CCNC(=O)NC(=O)C(C)Sc1ccc2c(c1)OCCO2 (configuration not stated) | -15%

(continued)
SMILES | VDR inhibitor
O=c1ccn([C@@H]2O[C@H](CNCc3ccc(-n4cccn4)cc3)[C@@H](O)[C@H]2O)c(=O)[nH]1 | 8%
Cc1cccc2c1c1ccc3c(c1n2C)C(=O)C=CC3=O | 22µM*
CCOc1ccc(C2C(C(=O)c3ccco3)=C(O)C(=O)N2Cc2cccnc2)cc1 (configuration not stated) | -2%
CN(C)c1ccc(C(=O)OCC(=O)Nc2cccc(S(=O)(=O)N3CCCC3)c2)cc1 | -4%
CN(C)/C=N/c1sc2c(c1C#N)CCCC2 | -10%
O=C(Cc1ccc(Cl)cc1)Nc1ccc(Br)cc1 | -11%
O=C(CCSc1ccc(Cl)cc1)c1cccs1 | -11%
CN(C)C(=O)c1ccc(-c2nnc(OCc3nc4ccccc4n3C)c3ccccc23)cc1 | 5%
CCCCC(CC(C)O)c1n[nH]c(=S)n1-c1ccccc1 (configuration not stated) | -6%
CCNC(=O)/C(=C/c1cccc([N+](=O)[O-])c1)NC(=O)c1ccc(C)cc1 | 5%

Brought forward from above: six entries; new compounds follow.
SMILES | VDR inhibitor
CN(C)/C=N/c1sc2c(c1C#N)CCCC2 | -10%
O=C(Cc1ccc(Cl)cc1)Nc1ccc(Br)cc1 | -11%
O=C(CCSc1ccc(Cl)cc1)c1cccs1 | -11%
CN(C)C(=O)c1ccc(-c2nnc(OCc3nc4ccccc4n3C)c3ccccc23)cc1 | 5%
CCCCC(CC(C)O)c1n[nH]c(=S)n1-c1ccccc1 (configuration not stated) | -6%
CCNC(=O)/C(=C/c1cccc([N+](=O)[O-])c1)NC(=O)c1ccc(C)cc1 | 5%
O=C1CC(=C2c3ccccc3-c3ccccc32)C(=O)N1CCN1CCN(c2ccccc2)CC1 | 13%
COC/C=C/C1=CC2=CC(=O)C(C)(O)C(=O)C2=CO1 (configuration not stated) | -3%
CCOC(=O)N1CCN(C(=O)C2CCN(S(=O)(=O)N3CCC4(CC3)OCCO4)CC2)CC1 | 1%
CCOC(=O)CSc1nnc(CNc2nc(-c3ccccc3)cs2)n1C | -19%
COc1ccc(CCNC(=O)C2CC(c3ccc([N+](=O)[O-])cc3)=NO2)cc1 (configuration not stated) | -11%
CC1(C)CC(=O)C(N=Nc2ccc(Br)cc2)=C(O)C1 | -14%
NC(=O)COC(=O)[C@@H]1CC(O)CN1S(=O)(=O)c1ccc2c(c1)OCCO2 (some centres not stated) | -9%
C=CCc1c(C)nc(SC)nc1Nc1ccc(C(C)=O)cc1 | 2%
Cc1ccc2nc(-c3ccc(NC(=O)CSc4nccc(=O)[nH]4)cc3)sc2c1 | 4%
COc1ccc(COC(=O)c2ccc(Br)c(S(=O)(=O)N3CCOCC3)c2)cc1F | -19%
COc1ccc(NC(=O)CSC2=Nc3ccccc3C3=NC(CC(=O)NCc4ccccc4OC)C(=O)N23)cc1Cl (configuration not stated) | -4%
COc1ccccc1N1CCN(S(=O)(=O)CCNC(=O)C(c2ccccc2)c2ccccc2)CC1 | 14%
Cc1ccc2nc3c(cc(C(=O)NCCc4ccccc4)c(=N)n3CCCN3CCOCC3)c(=O)n2c1 | 1%
CCn1ccc(-c2ccccc2)c(C#N)c1=O | 3%
Cc1cc2nc3c(=O)[nH]c(=O)[nH]c3nc2c([N+](=O)[O-])c1N | -24%
COc1cc2c(cc1OC)C(c1ccc(Br)cc1)CC(=O)N2 (configuration not stated) | -9%
C=CCNS(=O)(=O)c1ccc2c(c1)n(C)c(=O)n2C | -9%
Cc1oc(-c2ccc(Cl)cc2)nc1CN1CCCC(C(=O)NCCCN2CCCC2=O)C1 (configuration not stated) | -14%
O=C(c1ccc([N+](=O)[O-])cc1)N1CCCC1 | -8%
CCOC(=O)N1CCc2c(sc(NCc3cccc(F)c3)c2C(=O)Nc2ccc(OC)cc2)C1 | u
COC(=O)c1ccccc1NC(=O)CC#N | 13%
c1ccc(CNc2nnnn2-c2ccccc2)cc1 | 1%
CCc1cccc(C)c1NC(=O)CN1C(=O)c2ccccc2Sc2ncccc21 | 1%
O=C(N/N=C/C(Cl)=C/c1ccccc1)c1cnccn1 | 2%

Some of the compounds tested (hit frequency here may not be typical).
